High-throughput results as filed in PubChem.
MARV entry inh: Marburg virus entry inhibition; AID 540276; Marburg virus pseudotyped entry inhibition, cell reporter; control for the full effect not named in the record; about a third of the inactives were read at about 46 µM; Potency, µM (highest dose often 37.8 µM), for the others: at the highest dose activity change, negative = inhibition, usual class: inhibitors; 300,000 compounds, 1.8% hits; active = well fitted inhibition curve with a large enough effect; inconclusive = small, poorly fitted or top-dose-only effect, or effect the other way; inactive = flat fitted curve, though single readings scatter; tested in HEK293 cells; about a fifth of its hits are not listed in these tables; further: on the % scale 0 is the no-effect control and ±100 the full control effect; luciferase read-out
NS1 inh: influenza NS1 inhibition; S. cerevisiae slowed by influenza A NS1, growth recovery by OD600; Potency, µM (doses to about 46.1 µM), inactives show at the highest dose activity, positive = more growth; 270,000 compounds, 0.4% hits; further: actives are rising curves; nearly all actives have a fitted effect of over 50% in size
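Read-out: OD600 growth recovery of NS1-expressing budding yeast. Cells grown overnight at 30C in -URA glucose medium, washed, resuspended and diluted 1:100 in 2% galactose assay medium, pH 6.0. Same strain lacking NS1 served as positive control.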
LASV entry inh: Lassa virus entry inhibition | Potency, µM (doses to about 37.9 µM), for the others: at the top dose activity change, negative = inhibition, hits mostly inhibitors | 300,000 compounds, 1.2% hits | AID 540256 | Lassa virus pseudotype entry inhibition, cell reporter; control for the full effect not named in the record; active means well fitted inhibition curve with a large enough effect; inconclusive means small, poorly fitted or top-dose-only effect, or effect the other way; inactive means flat fitted curve, though single readings scatter; tested in HEK293 cells; further: on the % scale 0 is the no-effect control and ±100 the full control effect; nearly all actives have a fitted effect of over 50% in size; luciferase read-out
RE007 growth inh: less growth of the S. pombe RE007 Vpr strain. S. pombe RE007 Vpr strain, BacTiter-Glo ATP luminescence, 24 h; control for the full effect not named in the record. Potency, µM (top dose mostly 92.2 µM), for inactives: at the highest dose activity change, negative = less growth. 360,000 compounds, 0.21% hits; active = well fitted falling curve with a large enough effect; inconclusive = small, poorly fitted or top-dose-only effect; inactive = no such curve, though single readings can be large or run the other way;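 further: on the % scale 0 is the no-effect control and ±100 the full control effect; nearly all actives have a fitted effect of over 50% in size; the assay follows cell death caused by Vpr and the record does not say whether a fall means rescue or toxicity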
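Fission yeast RE007 carrying one integrated HIV-1 vpr copy, seeded at OD 0.01 in PMG+AL medium with 23 nL pinned compound. Grown 24 h at 30 degrees; viability read by BacTiter-Glo luminescence after 5 min.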
Cruzain inh Det: blocks cruzain activity in presence of Triton detergent | P25779 | purified cruzain, Z-FR-AMC fluorescence, 0.01% Triton | Potency, µM, for inactives: max response, negative = inhibition, hits mostly inhibitors | 200,000 compounds, 0.43% hits | AID 1478; active means well fitted curve in the direction sought with a large enough effect; inconclusive means small, poorly fitted or top-dose-only effect, or another doubt; inactive means no such curve, though single readings can be large; an effect the other way counts as inactive or inconclusive;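 further: plate controls were neutral wells for no effect and buffer without enzyme for full effect; nearly all actives have a fitted effect of over 40% in size; top concentration of the series not given in the record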
Target sequence (P25779 123-467 limits assumed): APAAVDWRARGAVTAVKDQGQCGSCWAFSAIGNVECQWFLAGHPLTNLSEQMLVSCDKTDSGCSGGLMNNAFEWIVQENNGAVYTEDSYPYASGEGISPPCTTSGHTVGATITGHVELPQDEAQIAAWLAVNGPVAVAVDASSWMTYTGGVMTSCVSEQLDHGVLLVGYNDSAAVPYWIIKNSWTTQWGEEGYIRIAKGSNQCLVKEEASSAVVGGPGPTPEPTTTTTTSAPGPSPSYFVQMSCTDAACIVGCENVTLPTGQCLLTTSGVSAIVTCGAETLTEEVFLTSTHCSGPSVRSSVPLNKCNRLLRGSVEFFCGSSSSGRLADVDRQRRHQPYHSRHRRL
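Cysteine protease activity tested under reducing, mildly acidic conditions (100 mM sodium acetate pH 5.5, 5 mM DTT) plus 0.01% Triton X-100. Cruzain 1.5 nM; substrate Z-FR-AMC 2 uM; 15 min compound preincubation at room temperature.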
Cruzain noTriton: blocks cruzain activity in detergent-free assay. P25779. purified cruzain, Z-FR-AMC fluorescence, no detergent. Potency, µM, inactives show max response, negative = inhibition, most hits filed as inhibitors. 200,000 compounds, 2.3% hits; active means well fitted curve in the direction sought with a large enough effect; inconclusive means small, poorly fitted or top-dose-only effect, or another doubt; inactive means no such curve, though single readings can be large; an effect the other way counts as inactive or inconclusive;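 further: plate controls were enzyme without inhibitor for no effect and buffer without enzyme for full effect; nearly all actives have a fitted effect of over 40% in size; top concentration of the series not given in the record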
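Purified cruzain at 1.5 nM, pre-incubated 15 min with compound at room temperature in 100 mM sodium acetate pH 5.5, 5 mM DTT, 0.00005% Triton X-100. Reaction started with 2 uM Z-FR-AMC; AMC fluorescence increase over 60 s gives rate.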
SARS PLP yeast: SARS-CoV PLP inhibition in yeast. S. cerevisiae expressing SARS-CoV PLpro, growth rescue; control for the full effect not named in the record. Potency, µM (highest dose often 32.9 µM), for the others: at the highest dose activity, positive = growth rescue. 330,000 compounds, 0.19% hits; further: 0% is about no effect; nearly all actives have a fitted effect of over 55% in size; growth read by luminescence after 48 h
StopGo reporter: FMDV 2A StopGo reporter, luciferase signal; human cells with a luciferase reporter of 2A StopGo recoding; control for the full effect not named in the record; Potency, µM (doses to about 57.9 µM), for the others: at the highest dose signal change, negative = less light; 410,000 compounds, 1.2% hits; AID 1159524; active = well fitted falling curve with a large enough effect; inconclusive = small, poorly fitted or top-dose-only effect; inactive = no such curve, though single readings can be large or run the other way; tested in HEK293T cells; further: on the % scale 0 is the no-effect control and ±100 the full control effect; nearly all actives have a fitted effect of over 45% in size; luciferase light after 4 h
Starred values were filed as active, the others as inactive; ? = inconclusive; nt = not tested or not shown; & = joins results of further samples; [ ] = remark or other dose. Unless noted, the call rests on the fitted dose curve; in most records, active means well fitted rising curve with a large enough effect; inconclusive means small, poorly fitted or top-dose-only effect; inactive means no such curve, though single readings can be large or run the other way. Potency means the concentration at half of the fitted maximal effect.

SMILES	MARV entry inh	NS1 inh	LASV entry inh	RE007 growth inh	Cruzain inh Det	Cruzain noTriton	SARS PLP yeast	StopGo reporter
O=C(Oc1ccccc1C(=O)N1CCOCC1)c1ccc(F)cc1	-1.5%[46.1 µM]	2.8%	3.4%	4.8%	nt	nt	0.2%	-9.4%
CC(C)[C@H]1C(=O)Nc2ccccc2N1C(=O)N[C@@H](Cc1ccccc1)C(=O)N[C@H](Cc1ccccc1)C(=O)O	nt	29.1%	nt	0.8%	nt	nt	3.1%	-4.5%
O=c1c2ccccc2c(=O)n(Cc2ccccc2)n1Cc1ccccc1	-11.7%	-47.1%	-6.8%	nt	-3.2%	1.1%	5.3%	-3.5%
O=c1[nH]c(=S)[nH]c(-c2ccccc2)c1Cc1c(O)ccc2ccccc12	11.5%&11.5%&11.5%	-10.3%	3.9%	nt	-1.5%	-7.9%	nt	nt
COc1cc(-c2ccno2)ccc1S(=O)(=O)N1CCN(c2ccc(C(C)=O)cc2)CC1	nt	nt	22.5%[46.1 µM]	nt	0.6%	-15.8%	nt	-5.5%
COc1ccc(C(=O)Nc2cc(C)ccc2NC(=O)COc2ccccc2)cc1	2.6%	7.9%	2.6%	-11.3%	-6.0%	2.7%	-0.9%	28.3%
Clc1ccccc1C=NNc1ccccn1	5.6%	nt	?	-10.0%	nt	nt	nt	22.3%
CC(Oc1ccccc1F)C(=O)NCC1(N2CCOCC2)CCCCC1 (stereo not given)	-2.1%[46.1 µM]	nt	11.9%[46.1 µM]	nt	-0.1%	-12.6%	nt	-17.2%
Cc1nn(C(=O)N2CCOCC2)c(C)c1C	5.2%[46.1 µM]	-4.4%	2.4%	23.5%	3.4%	3.3%	1.8%	4.4%
CC(C)=C(NC(=O)c1ccccc1)C(=O)Nc1cccc(C)c1	nt	1.9%	nt	-14.1%	nt	nt	8.6%	-15.8%
COc1cc(-c2cc3nc4ccccc4n3c(N)c2C#N)cc(OC)c1OC	?	-46.5%	?	6.2%	nt	nt	-6.1%	-26.1%
COc1ccc(S(=O)(=O)N2CCC(C(=O)N3CCOCC3)CC2)cc1Cl	2.3%[46.1 µM]	4.1%	22.5%[46.1 µM]	-4.6%	nt	nt	0.1%	-0.9%
COc1ccc(CCN(C)Cc2ccc(F)cc2F)cc1OC	-18.5%	3.8%	-21.0%	11.5%	8.2%	-0.1%	3.4%	nt
COc1cc(/C=N/Nc2nc3ccccc3s2)ccc1O	10µM*	8.5%	?	7.5%	nt	nt	0.6%	19.3%
COC(=O)c1c(SCC(=O)Nc2cccc(C(F)(F)F)c2)[nH]c2ccccc2c1=O	nt	nt	-9.6%[46.1 µM]	nt	0.3%	-11.8%	nt	-18.6%
CCOC(=O)C1=C(COC(=O)c2ncc(Cl)c(Cl)c2Cl)NC(=O)NC1C (stereo not given)	25.8%	nt	-6.1%	0.8%	nt	nt	nt	-25.6%
CCCc1cc(Nc2cccc(OC)c2)n2ncnc2n1	-15.0%	-8.3%	0.9%	9.9%	-1.7%	2.8%	-2.7%	3.5%
Cc1ccc2c(c1)C(=O)OC(C(=O)Nc1ccc(C(=O)O)cc1)C2 (stereo not given)	-1.1%[46.1 µM]	nt	11.4%[46.1 µM]	nt	-2.3%	13.7%	nt	?
Cc1ccccc1CN1C(=O)C(C)S/C1=N/N=C/c1ccco1 (stereo not given)	nt	-0.5%	nt	-16.6%	nt	nt	-6.7%	-15.7%
O=C(CN(Cc1ccccc1)S(=O)(=O)c1ccccc1)NC1CC1	2.4%	-2.7%	16.2%	-7.6%	-0.8%	-3.1%	1.4%	nt
O=C(Nc1cccc(C(F)(F)F)c1)Nc1ccc2[nH]c(=O)[nH]c2c1	-5.5%[46.1 µM]	2.2%	4.7%[46.1 µM]	4.6%	nt	nt	0.7%	-8.8%
COc1cc(N2CCCC2)c(OC)cc1/C=C(/C#N)c1ccc(Br)cc1	?	-4.4%	?	6.8%	-1.0%	?	-2.1%	-21.5%
O=C1CN(C(=O)Nc2ccccc2Cl)C(c2ccccc2)c2c(sc3c2CCCC3)N1 (stereo not given)	-4.0%[46.1 µM]	nt	-22.9%[46.1 µM]	nt	-7.5%	19.4%	nt	-19.8%
CN(C)S(=O)(=O)c1cc(NC(=O)COC(=O)c2nc(Cl)ccc2Cl)ccc1Cl	2.7%[46.1 µM]	nt	10.9%[46.1 µM]	-10.5%	nt	nt	0.9%	-2.2%
COc1cc(CNCCO)ccc1OCC(=O)Nc1ccc(Br)cc1	-29.4%	-2.9%	20.6%	-13.1%	3.5%	-4.7%	3.4%	4.0%
Cn1c(=O)c(C(=O)Nc2ccccc2S(N)(=O)=O)c(O)c2ccccc21	nt	-3.6%	nt	-5.0%	nt	nt	0.3%	17.9%
N#Cc1ccccc1Cn1c(-c2cscn2)nc2ccccc21	28.6%	-7.5%	9.1%	-12.6%	-3.2%	6.2%	-1.1%	-23.3%
COc1nc(-c2ccccc2)nc(C)c1CC(=O)O	-1.3%[46.1 µM]	5.3%	3.8%	5.0%	nt	nt	-1.4%	-3.9%
CC(O)CNCCNCc1c(OCc2ccccc2)ccc2ccccc12 (stereo not given)	?	5.1%	9.2µM*	-16.5%	-0.5%	4.9%	-3.0%	nt
COc1ccc(OC)c(C(=O)N(C)C2CCCN(Cc3ccccc3F)C2)c1 (stereo not given)	nt	16.9%	nt	0.4%	nt	nt	-8.4%	-0.5%
COc1cc(N=Cc2c(O)[nH]c3ccccc23)cc(OC)c1OC	?	-4.9%	?	-14.4%	-9.7%	-4.5%	-7.8%	-22.3%
CCOc1ccc2nc(N3CCCC(C(=O)Nc4cc(C)ccc4C)C3)sc2c1 (stereo not given)	?	nt	nt	nt	-0.8%	-5.3%	nt	15.9%
CCN(CC)S(=O)(=O)c1cccc(NC2=NCCCCC2)c1	nt	-0.4%	nt	-5.4%	nt	nt	-0.8%	24.8%

Ordered by number of heavy atoms (smallest number first): some entries from above
SMILES	MARV entry inh	NS1 inh	LASV entry inh	RE007 growth inh	Cruzain inh Det	Cruzain noTriton	SARS PLP yeast	StopGo reporter
COc1nc(-c2ccccc2)nc(C)c1CC(=O)O	-1.3%[46.1 µM]	5.3%	3.8%	5.0%	nt	nt	-1.4%	-3.9%
CCCc1cc(Nc2cccc(OC)c2)n2ncnc2n1	-15.0%	-8.3%	0.9%	9.9%	-1.7%	2.8%	-2.7%	3.5%
CCN(CC)S(=O)(=O)c1cccc(NC2=NCCCCC2)c1	nt	-0.4%	nt	-5.4%	nt	nt	-0.8%	24.8%
N#Cc1ccccc1Cn1c(-c2cscn2)nc2ccccc21	28.6%	-7.5%	9.1%	-12.6%	-3.2%	6.2%	-1.1%	-23.3%
O=C(CN(Cc1ccccc1)S(=O)(=O)c1ccccc1)NC1CC1	2.4%	-2.7%	16.2%	-7.6%	-0.8%	-3.1%	1.4%	nt
COc1cc(CNCCO)ccc1OCC(=O)Nc1ccc(Br)cc1	-29.4%	-2.9%	20.6%	-13.1%	3.5%	-4.7%	3.4%	4.0%
Cn1c(=O)c(C(=O)Nc2ccccc2S(N)(=O)=O)c(O)c2ccccc21	nt	-3.6%	nt	-5.0%	nt	nt	0.3%	17.9%
CC(O)CNCCNCc1c(OCc2ccccc2)ccc2ccccc12 (stereo not given)	?	5.1%	9.2µM*	-16.5%	-0.5%	4.9%	-3.0%	nt
CN(C)S(=O)(=O)c1cc(NC(=O)COC(=O)c2nc(Cl)ccc2Cl)ccc1Cl	2.7%[46.1 µM]	nt	10.9%[46.1 µM]	-10.5%	nt	nt	0.9%	-2.2%
CCOc1ccc2nc(N3CCCC(C(=O)Nc4cc(C)ccc4C)C3)sc2c1 (stereo not given)	?	nt	nt	nt	-0.8%	-5.3%	nt	15.9%
O=C1CN(C(=O)Nc2ccccc2Cl)C(c2ccccc2)c2c(sc3c2CCCC3)N1 (stereo not given)	-4.0%[46.1 µM]	nt	-22.9%[46.1 µM]	nt	-7.5%	19.4%	nt	-19.8%

Rows were taken by chance; 4.8% or so of the library scored in one or more.
